# Sfp PPTase inh: inhibitors of Bacillus subtilis Sfp phosphopantetheinyl transferase. Q9F4F7. Biochemical Sfp PPTase activity, qHTS. Potency, µM, for the others: max response, negative = inhibition, most hits filed as inhibitors. hit rate 3.5% among 310,000. AID 1490; active means well fitted inhibition curve with a large enough effect; inconclusive means small, poorly fitted or top-dose-only effect, or another doubt; inactive means no such curve, though single readings can be large or run the other way;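 further: the enzyme is Sfp with the accession as filed and its product quenches rhodamine fluorescence; potency means the concentration at half of the fitted maximal effect; 0% = enzyme reaction without inhibitor and -100% = no enzyme wells; top concentration of the series not given in the record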
#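 Compounds were incubated with enzyme (final 15 nM) for 15 min at room temperature before substrate addition started the reaction. Fluorescence at 525 nm excitation, 598 nm emission was recorded immediately and after 30 minutes.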
# TRPV1 PAM: enhances activation of the human vanilloid receptor TRPV1 | Q8NER1 | TRPV1-expressing cells, Fluo-8 calcium influx, capsaicin EC20 potentiation; host cell line not named in the record; control for the full effect not named in the record | AID 540277 | potentiation, % at 8.33 µM | hit rate 0.02% among 320,000; active means potentiation above 80%; inconclusive means 30% to 80%; inactive means below 30%; further: 0% is about no effect
#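 Fluo-8 calcium influx in TRPV1-expressing cells, kinetic read (ex 480/em 520 nm). Compound added and read 3 min for agonist activity, followed by capsaicin at EC20 final and 2 min further read for enhancement.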
# ClpP mod: qHTS Assay for Activators of ClpP | ATP-dependent Clp protease proteolytic subunit (Bacillus subtilis (strain 168)), P80244 | purified B. subtilis ClpP, FRET peptide cleavage, 20 min | AID 651965, 2013 | Potency, µM (top dose mostly 57.5 µM), for inactives: at the highest dose activity change, negative = active | hit rate 1.9% among 340,000; active = well fitted falling curve with a large enough effect; inconclusive = small, poorly fitted or top-dose-only effect; inactive = no such curve, though single readings can be large or run the other way; further: potency means the concentration at half of the fitted maximal effect; the source files actives as falling curves though it sought activators and does not explain the sign; nearly all actives have a fitted effect of over 65% in size; many hits overshoot -100%
# Target sequence (P80244 whole entry, looked up): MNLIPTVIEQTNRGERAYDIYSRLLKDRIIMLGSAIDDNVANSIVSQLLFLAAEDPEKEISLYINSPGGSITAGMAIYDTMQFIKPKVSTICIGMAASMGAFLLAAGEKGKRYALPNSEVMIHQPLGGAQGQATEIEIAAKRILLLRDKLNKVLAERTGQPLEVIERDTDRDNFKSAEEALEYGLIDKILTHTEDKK
#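 Purified B. subtilis ClpP, 10 microg/mL final in Tris/HCl pH8 with KCl, BSA, glycerol and Tween-20, cleaved an Abz/nitrotyrosine-quenched decapeptide. Fluorescence (ex 320, em 430) was read at 0 and 20 min at room temperature. Delta was normalized to 5.8 microM ADEP and DMSO/no-enzyme controls.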
# Menin-MLL FL inh: inhibitors of human menin-MLL interaction, wild-type MLL peptide. Fluorescence polarization, fluorescein-MLL peptide displacement from menin. FP activity change, % at 61.4 µM. 290,000 tested, under 10 active; inconclusive = falling polarisation curve, or a change in total fluorescence; inactive = total fluorescence flat and polarisation flat or rising; no compound was filed as active; the % refers to the polarisation; negative = inhibition;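 further: % of control where 0% means no effect; inhibitors lower the polarisation; unlabelled MLL peptide was the positive control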
# TRPML1 inh: human mucolipin-1 channel inhibition; TRPML1-inducible cells, Ca2+ dye fluorescence, FDSS; hits give low values; inhibition of EC80 agonist-evoked calcium signal; activity change, negative = inhibition, % (concentration not given with the values); hit rate 0.02% among 390,000; AID 624415; in the data active means activity change below about -50%; inconclusive means about -30% to -50%; inactive means above about -30%;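 further: stimulus is agonist 54-4 at its EC80 concentration; on the % scale 0 is the no-effect control and ±100 the full control effect; compound concentration not given in the record; the text of the record puts the active cut at -80%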
# Target sequence (Q9GZU1 whole entry, looked up): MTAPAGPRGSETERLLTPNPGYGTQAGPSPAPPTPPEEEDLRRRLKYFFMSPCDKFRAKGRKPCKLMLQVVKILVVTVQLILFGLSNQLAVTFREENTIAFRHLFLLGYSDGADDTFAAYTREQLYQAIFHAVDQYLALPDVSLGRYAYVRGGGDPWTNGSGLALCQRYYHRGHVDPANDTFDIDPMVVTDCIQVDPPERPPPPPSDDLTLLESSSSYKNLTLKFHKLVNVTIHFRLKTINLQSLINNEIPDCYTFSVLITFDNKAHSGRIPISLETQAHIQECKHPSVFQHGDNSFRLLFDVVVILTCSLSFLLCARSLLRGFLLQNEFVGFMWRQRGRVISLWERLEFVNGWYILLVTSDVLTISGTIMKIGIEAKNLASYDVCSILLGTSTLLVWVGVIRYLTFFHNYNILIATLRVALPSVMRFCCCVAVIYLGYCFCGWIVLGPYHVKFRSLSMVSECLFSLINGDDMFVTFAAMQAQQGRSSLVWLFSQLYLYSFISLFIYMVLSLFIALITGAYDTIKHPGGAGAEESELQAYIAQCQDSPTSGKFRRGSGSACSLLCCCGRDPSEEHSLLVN
#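 Calcium fluorescence in TRPML1-DL cells induced overnight with Tet: a 110 s read after compound pin addition, then a 110 s antagonist read after challenge with 54-4 at 4 uM final (EC80).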
# TRPML1 agonist: agonists of human TRPML1 channel. TRPML1-expressing cells, Ca2+ dye fluorescence, FDSS; host cell line not named in the record; reference of the full effect not given here. activation, % (concentration not given with the values). hit rate 0.12% among 410,000; in the data active = activation above about 50%; inconclusive = about 30% to 50%; inactive = below about 30%; further: 0% is about no effect; the text of the record puts the active cut at 80%
#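 Kinetic FDSS Ca2+ read in Tet-induced TRPML1-DL cells (ABD Ca8 dye plus quencher, 45-90 min RT loading): baseline, then compound, then 110 s agonist window; EC80 agonist 54-4 at 4uM final added afterwards for a 110 s antagonist window.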
# PINK1 expr mod: changes PINK1 expression; PINK1 immunofluorescence, high-content cytometry, 24 h; Potency, µM (top dose mostly 76.6 µM), for the others: top-dose activation (PINK1 increase), usual class: activators; hit rate 0.2% among 410,000; AID 624263; active = well fitted activation curve with a large enough effect; inconclusive = small, poorly fitted or top-dose-only effect; inactive = flat fitted curve, though single readings scatter; cell line not stated here;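 further: potency means the concentration at half of the fitted maximal effect; % of control where 0% means no effect; nearly all actives have a fitted effect of over 65% in size; a mitochondrial uncoupler was the plate control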
#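 Stable cell line, 250 cells/well, 12 h attachment; compounds pinned at 5 concentrations, 24 h; CCCP control. Fixed with nuclear dye, primary antibodies 12 h at 10 degrees C, secondary plus cell stain; laser-scanning cytometer read.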
# The depositor's hits bear a star; ? = inconclusive; / = no result given; [ ] = dose if it differs, or a comment. This is a random part of the collection (roughly 4.4% active in at least one column).
SMILES,Sfp PPTase inh,TRPV1 PAM,ClpP mod,Menin-MLL FL inh,TRPML1 inh,TRPML1 agonist,PINK1 expr mod
O=C(Nc1ccccc1)c1cc(S(=O)(=O)N2CCOCC2)cs1,15%,-19,-2.4%,3.5,-12,0.6,?
CCC1CCc2nc3sc(C(=O)Nc4cccc(F)c4)c(N)c3cc2C1 (stereo not given),/,/,8.2%,/,-23,0.7,15%
CCOc1cccc2sc(N3CCN(C(=O)C(C)(C)C)CC3)nc12,/,/,1.3%,/,-7,1.3,0.7%
COc1ccc(C(=O)N2CCCC(c3nc(-c4ccc(C)o4)no3)C2)cc1OC (stereo not given),1%,2,/,3.1,-6,-0.2,0.8%
COCCN(C(=O)CCc1ccc(OC)cc1)c1nnc(-c2ccncc2)s1,-27%,5,1.0%,0.0,5,1.5,4.1%
CCOC(=O)C1=C(C)N=c2s/c(=C\c3ccc(OCC(=O)O)c(OC)c3)c(=O)n2C1c1ccc(OC)cc1 (stereo not given),-2%,16,3.2%,?,12,5.2,-2.1%
CCCCN(C)C(=O)c1ccc2c(=O)n3nc(Nc4cc(C)ccc4C)sc3nc2c1,/,/,-4.6%,/,-7,1.4,-0.9%
CC(=O)c1cccc(NC(=O)C(Sc2ncnc3ccccc23)c2ccccc2)c1 (stereo not given),10%,12,0.5%,7.2,8,0.0,-0.1%
O=C(CSc1cn(CCNC(=O)c2cccs2)c2ccccc12)NC1CCCC1,5%,0,-3.3%,2.0,10,-0.3,0.5%
CCC(C(=O)NC1CCCCC1)N(C(=O)c1snc(C(N)=O)c1N)c1ccc(OC)cc1OC (stereo not given),13%,0,-4.5%,/,1,-1.2,-0.9%
C[N+]1(CCOS(=O)C23CC4CC(CC(C4)C2)C3)CCOCC1 (stereo not given),-2%,0,-1.2%,0.1,-5,-0.3,0.2%
COc1ccc(NC(=O)C2Cc3c(-c4cccc(C(N)=O)c4)ccnc3O2)cn1 (stereo not given),/,/,0.2%,/,/,-0.3,12%
CCCCC(=O)OCC(=O)Nc1ccc(C)c(F)c1,2%,-28,/,0.8,-2,-0.6,-1.2%
CCN1C(=O)CC(NCc2ccc3c(c2)OCO3)C1=O (stereo not given),3%,15,-3.0%,-2.0,-1,0.3,-4.2%[38.3 µM]
CCCc1ncc(CN2CCCC(C(=O)Nc3ccc(-c4cccc(OC)c4)cc3)C2)cn1 (stereo not given),-8%,-6,-3.2%,7.4,-17,0.5,-1.8%

# Single records, from the list above.
# CCC1CCc2nc3sc(C(=O)Nc4cccc(F)c4)c(N)c3cc2C1 (stereo not given) is entered as Sfp PPTase inh: /; TRPV1 PAM: /; ClpP mod: 8.2%; Menin-MLL FL inh: /; TRPML1 inh: -23; TRPML1 agonist: 0.7; PINK1 expr mod: 15%
# CCCc1ncc(CN2CCCC(C(=O)Nc3ccc(-c4cccc(OC)c4)cc3)C2)cn1 (stereo not given) is entered as Sfp PPTase inh: -8%; TRPV1 PAM: -6; ClpP mod: -3.2%; Menin-MLL FL inh: 7.4; TRPML1 inh: -17; TRPML1 agonist: 0.5; PINK1 expr mod: -1.8%

# (continued)
SMILES,Sfp PPTase inh,TRPV1 PAM,ClpP mod,Menin-MLL FL inh,TRPML1 inh,TRPML1 agonist,PINK1 expr mod
Cc1cc(C)nc(N2CCC(CNC(=O)CCc3ccccc3)CC2)n1,-7%,-11,?,-3.1,0,-0.2,0.3%
Cc1ccc(C)c(S(=O)(=O)N2CCC(c3nc4c(nnn4Cc4ccc(F)cc4)c(=O)[nH]3)CC2)c1,-6%,1,0.9%,5.3,-8,0.3,3.1%
COc1ccc(-c2ccc(=O)[nH]n2)cc1,24%,7,-4.5%,-4.3,-18,0.3,-8.1%[38.3 µM]
COc1ccc(NS(=O)(=O)c2cc3[nH]c(=O)c(=O)[nH]c3cc2C)cc1OC,/,/,-1.2%,/,-1,-0.3,-1.0%
CCOc1ccccc1C(=O)Nc1ccccc1O,17%,1,-0.7%,2.3,21,-0.4,-0.6%
COCCNc1nc(NCCN2CCNC2=O)c2sc(-c3ccccc3)cc2n1,/,/,3.8%,/,/,-1.0,1.3%
CCC(C)[C@H](NC(=O)NCc1ccc(OC)c(OC)c1)C(=O)O (stereo not given in full),12%,2,0.2%,1.3,4,0.3,0.2%
CC(=O)c1ccc(Nc2cnn(C34CC5CC(CC(CC(=O)O)(C5)C3)C4)c(=O)c2Cl)cc1,16%,4,/,-6.4,-18,-0.5,-0.9%
C[C@@H]1COc2cccc(N3CCSCC3)c2S(=O)(=O)N1,/,/,-1.2%,/,/,0.3,-1.4%
CCOC(=O)CNC(=O)Cc1ccc(OC)cc1,16%,-7,/,2.4,-12,0.1,-1.7%
CN(C)/C=C/C(=O)c1ccc(S(=O)(=O)c2ccccc2)cc1,5%,-2,/,2.2,-3,-0.2,2.1%
COc1ccc2c(Sc3ccccc3)c(C(=O)NCc3cccc(OC)c3OC)[nH]c2c1,/,/,-2.0%,/,25,0.9,0.4%
CC(C)C(c1nnnn1CC1CCCO1)N1CCN(Cc2ccc3c(c2)OCO3)CC1 (stereo not given),4%,4,-1.3%,-1.4,10,0.9,-1.8%
Cc1csc(N(C(=O)Cc2ccccc2F)c2ccccc2)n1,-7%,2,0.6%,3.7,-14,-0.8,2.3%
CCOc1cccc(NC(=O)/C(C#N)=C\c2cn(CC(=O)O)c3ccccc23)c1,20%,-3,0.6%,14,-8,-1.1,0.0%
Cc1ccc(CNC(=O)C(=O)NCC2OCCN2S(=O)(=O)c2ccc(Br)cc2)cc1 (stereo not given),9%,-22,-3.9%,/,-3,2.6,-1.9%
O=S1(=O)C=C[C@H](COCc2ccccc2)N1,/,/,0.0%,/,3,-0.6,3.6%
O=C(Cc1ccccc1[N+](=O)[O-])Nc1ccccc1C(=O)N1CCOCC1,9%,6,1.0%,-1.1,5,-0.7,-0.3%
COc1ccc(-c2cc(C(=O)NCC(C)C)no2)cc1,4%,0,?,0.9,60,-0.2,-2.2%[38.3 µM]
COc1cc2c(cc1OC)C(c1ccccc1Br)NC(=O)C2 (stereo not given),12%,-2,-0.2%,1.2,-8,0.6,2.6%
O=C(C[n+]1cn(C(F)F)c2ccccc21)c1ccc(OC(F)F)cc1,-22%,-12,-0.2%,-8.9,17,-0.2,2.2%
CCN(CC(=O)NCc1cccs1)CC(=O)Nc1cccc(S(N)(=O)=O)c1,/,3,-5.5%,/,16,1.5,0.1%
Cc1ccc(CONS(=O)(=O)c2cc(C)ccc2C)cc1,/,-4,-1.2%,/,13,2.7,7.4%
CCOC(=O)c1c(C)nc2c(C#N)cnn2c1C,9%,3,?,5.1,6,-0.3,1.7%
COc1cc(C2C(C(C)=O)=C(O)C(=O)N2c2ccc(C)cc2)ccc1O (stereo not given),-8%,-13,-0.1%,2.0,-6,0.3,0.4%
COc1ccc(C(C(=O)NCC2CCCO2)N(C(=O)Cn2nnc3ccccc32)c2ccc(NC(C)=O)cc2)c(OC)c1 (stereo not given),-2%,1,/,/,-4,1.4,4.5%
Cc1cccc(N(CC(O)CON=C2c3ccccc3-c3ccccc32)S(C)(=O)=O)c1 (stereo not given),3%,4,-4.1%,2.5,41,1.8,/
COC(=O)CSc1nnc(C2COc3ccccc3O2)n1-c1ccccc1 (stereo not given),12%,-1,1.8%,3.8,3,0.8,/
COc1ccc(OCc2n[nH]c(=S)o2)cc1,-21%,-3,0.6%,2.2,0,-1.0,0.1%
CC1(C)Cc2c(cnn2-c2ccc(F)cc2)C(NC(=O)C(C)(C)O)C1 (stereo not given),17%,1,-1.6%,5.2,-1,0.2,3.2%
Cc1ccc(C(=O)C2=C(O)C(=O)N(Cc3cccnc3)C2c2ccc(N(C)C)cc2)o1 (stereo not given),1%,2,/,/,0,-0.6,2.0%
CC(=O)Nc1ccc(NS(=O)(=O)c2cn(C)c(=O)n(C)c2=O)cc1,13%,2,-2.8%,-2.5,9,0.7,-0.9%
CCC(CC)C(=O)Nc1ccc(C(=O)OCc2cc(=O)n3nc(C4CC4)sc3n2)cc1,/,/,0.7%,/,-20,-0.6,-2.0%
COc1cc(OC)c(C(=O)OCC(=O)Nc2c(C)n(C)n(-c3ccccc3)c2=O)cc1OC,/,-3,-6.1%,/,-9,-0.6,-0.3%
CC(=O)Oc1ccc(C(=O)NCc2ccc3c(c2)OCO3)cc1,12%,2,0.2%,-12,-6,-0.7,-0.3%
Cc1cccc(C)c1NC(=O)C1c2ccccc2OCC(=O)N1C1CC1 (stereo not given),/,/,0.5%,/,/,-0.3,0.6%
CCCNS(=O)(=O)c1ccc(CCC(=O)N2CCN(c3ccc(OC)cc3)CC2)cc1,-12%,-6,-1.9%,2.5,-10,0.3,-1.1%[38.3 µM]
CSC1=NCCCN1C(=O)c1c(-c2ccccc2Cl)noc1C,8%,-3,-0.8%,-2.8,-8,-0.3,2.1%
CC(C)(C)C1CCc2onc(C(=O)Nc3cnn(Cc4ccc(F)cc4)c3)c2C1 (stereo not given),19%,8,27%,0.7,-1,1.4,21%[38.3 µM]
O=C(/C=C/c1ccc(-c2ccccc2[N+](=O)[O-])o1)c1ccc(F)cc1,5%,-7,0.1%,3.3,1,-0.4,2.4%[38.3 µM]
CN(C)/C(=N\S(=O)(=O)c1ccccc1)c1ccccc1,14%,1,/,2.9,-11,0.2,0.1%
O=[N+]([O-])c1ccc(SNc2ccccc2)c([N+](=O)[O-])c1,/,/,-2.3%,/,58,3.8,?
COc1ccc(N2CC(NC(=O)NC(C)(C)C)CC2=O)cc1 (stereo not given),14%,-4,-4.7%,-1.5,-3,-0.2,-2.1%
O=C(Nc1ncnc2c1CCC2)C12CC3CC(CC(C3)C1)C2,5%,-26,-1.9%,2.4,-8,0.9,-1.6%[38.3 µM]
Cc1ccc(C2=N/C(=C\c3ccc(F)cc3)C(=O)N2)cc1,/,-13,-17%,/,0,0.6,3.1%
CC(CC(=O)N1CCN(c2ccccc2)CC1)S(=O)(=O)c1ccc2c(c1)NC(=O)CS2 (stereo not given),13%,26,/,1.1,-5,-0.2,-0.6%
COc1cccc(NC(=O)CSc2c(C)cnc3c2c(=O)n(C)c(=O)n3C)c1,/,/,-1.1%,/,16,2.2,1.2%
COc1ccc(/C=C2\S/C(=N/S(=O)(=O)c3cccs3)NC2=O)cc1,14%,-2,/,-2.2,-15,1.1,-0.6%
O=C1CCC(c2ccc(-n3ccnc3)cc2)=NN1,1%,/,-0.5%,-3.2,9,0.2,-0.5%

# Compound activity as filed in PubChem.
